Source: PubChem (ICCB-Longwood Screening Facility, Harvard Medical School)
AID504770: E. coli YBA685 growth inhibition, screen for V. cholerae RctB inhibitors; E. coli YBA685 rctB-dependent plasmid, OD600 growth, 3 h; hits give low values; z-score (no concentration beside the values); actives 0.27% (n = 130,000); AID 504770;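 active = z-score under -2 on both plates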;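 note: wells of about 30 µL received 100 nL stock; score is relative to mean and SD of the test wells; the first replicate is given; strong numbers were not always called active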
Ba CapD inh: blocks the Bacillus anthracis CapD enzyme; purified CapD enzyme, fluorescence intensity read-out; hits give low values; some hits fall short of the stated cut; z-score (concentration not given with the values); actives 0.23% (n = 140,000); AID 492967;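 active = z-score under -4 in either of two replicates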;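 note: stock transfer was 100 nL into about 40 µL; score is relative to mean and spread of the plate; one replicate is shown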
* hit, by the source's call; i = inactive; . = no result given; & = joins results of further samples.

SMILES	AID504770	Ba CapD inh
CCOc1ccc2c(c1)c(=O)c1cccnc1n2CC(=O)Nc1cccc(C)c1C	2.2	0.615
Cc1cccc(-c2cc3nc4c(c(N5CCCC5)n3n2)CCCC4)c1	0.6	.
CC1CN(Cc2c(O)ccc3ccccc23)CC(C)O1 (centres undefined)	-0.75	24.1
CCCc1cc(=O)oc2c(CN3CCCCC3)c(O)ccc12	-0.6	70.2
COCCNC(=S)Nc1ccc2nc(N3CCN(C)CC3)cc(C)c2c1	-0.05	13.1
C/C(CCc1ccccc1)=N/NS(C)(=O)=O	2.25	-0.33
Oc1[nH]c2ccccc2c1C=NCc1cccc(F)c1	-0.5	-1.8
O=C(C1CC(c2ccc(F)cc2)=NO1)N1CCCCC1 (centres undefined)	-2	-1.52
CCOC(=O)c1nc(N2CCc3cc(OC)c(OC)cc3C2C)c2ccccc2n1 (centres undefined)	-0.2	-0.035
CCOc1ccc(C2Nn3c(nnc3-c3ccccc3)SC2C(=O)N2CCCCC2C)cc1 (centres undefined)	0.4	-0.63
Fc1ccc(COc2ccccc2-c2ccn(Cc3ccc(Cl)cc3)n2)cc1	.	-0.63
CCCCCCOc1ccc(C(=O)Oc2ccc(-c3ccc(C)cc3)cc2)cc1	.	-0.15
CC1CCCCN1C(=O)c1cc(I)ccc1NC(=O)c1cccnc1 (centres undefined)	-0.45	-0.72
O=C1CC(N2C(=O)C3CC=CCC3C2=O)C2COC1O2 (centres undefined)	-0.65	0.855
COc1ccccc1NC(=S)N/N=C/c1cccnc1	0	.
CCCCS(=O)(=O)/C=C\C1C2C=CC(C2)C1S(=O)(=O)CCCC (centres undefined)	-0.7	.
O=C(NNC(=O)c1sccc1-n1cccc1)Nc1ccc(Cl)cc1	.	-0.62
CCCn1c(SCc2nc(-c3ccc(OCC)cc3)no2)nnc1-c1ccc(Cl)cc1	-0.45	0.47
Cc1cc(NC(=O)c2c(-c3c(Cl)cccc3Cl)noc2C)c([N+](=O)[O-])cc1C	.	-0.13
S=c1n(CN2CCOCC2)c2ccccc2n1-c1ccccc1	0.2	.

Quoted from the results shown for reference:
SMILES	AID504770	Ba CapD inh
COc1ccccc1NC(=S)N/N=C/c1cccnc1	0	.
CCCCS(=O)(=O)/C=C\C1C2C=CC(C2)C1S(=O)(=O)CCCC (centres undefined)	-0.7	.

More structures follow:
SMILES	AID504770	Ba CapD inh
CCN(CC)c1cc(C)nc(NCc2ccccc2)n1	.	-0.475
O=C(COC(=O)c1ccc(O)cc1)Nc1cccc(I)c1	1.3	.
O=C(O)c1ccc2cccnc2n1	.	-0.275
CN(CC(=O)N1CC=C(c2ccccc2)CC1)S(=O)(=O)c1ccc2nc(-c3ccccc3)[nH]c2c1	0.55	0.13
CN1C(=O)CC(C(=O)Nc2ccccc2F)SC1=Nc1cccc(C(F)(F)F)c1 (centres undefined)	.	-0.02
COc1ccc(CCn2c(SCC(=O)NCCc3ccc(S(N)(=O)=O)cc3)nc3ccccc3c2=O)cc1OC	.	-0.705
CC(=O)OCc1cc(=O)n2ccsc2n1	0.85	11.6
COc1ccc(/C=C2\SC(N)=NC2=O)cc1OC	0.05	.
Cc1cc(NS(=O)(=O)c2ccc(NS(C)(=O)=O)cc2)no1	0.25	.
Cn1nc(C(C)(C)C)cc1C(=O)NCc1cc(F)cc2c1OCOC2	-0.1	0.925
O=C(CSc1nc(-c2ccco2)nc2cc(=O)[nH]n12)Nc1ccccc1	0.1	9.84
COc1ccc(Cl)cc1-n1c(C)cc(C(=O)OCC#N)c1C	-0.95	.
CCN(CC)CCNc1nc(-c2ccco2)c2c(c1C#N)CC(C)(C)OC2	0.55	-0.38
Cc1ccc(C2(O)CN(c3ccccc3C)C3=[N+]2CCCC3)cc1 (centres undefined)	.	-0.06
O=C(NC(=S)Nc1cccc(Cl)c1Cl)c1cccc([N+](=O)[O-])c1	.	-0.6
CC(C)n1nc(C(=O)Nc2ccccc2N2CCOCC2)c2ccccc2c1=O	-0.35	.
CC(C)(C)Sc1ccc(SC#N)s1	0.75	.
O=c1c2c([nH]c(=S)n1-c1ccc(F)cc1)CCS2	1.55	.
COCCOC(=O)Nc1nc2ccc(OC)cc2s1	.	-0.035
CC(=O)Nc1nc(-c2ccc(C(C)C)cc2)nc2c1c(=O)oc1ccccc12	.	-0.28
Nn1c(COc2cccc(Br)c2)nnc1SCC(=O)N(C1CCCC1)C1CCS(=O)(=O)C1 (centres undefined)	-0.2	.
CN(C)CC1CCCCC1OC(=O)c1ccc(Cl)cc1 (centres undefined)	-0.35	0.235
Cc1cc(Cl)c(O)c(-n2nc3ccccc3n2)c1	-0.65	-0.245
CC(=O)OCC(=O)c1ccc(NC(=O)c2ccccc2)cc1	2.45	-0.61
O=C(COc1ccccc1)Nc1nncs1	-1.5	.
CCOc1ccc2cc(-c3nnc(-c4cccc(Br)c4)o3)c(=O)oc2c1	.	0.045
O=C1CS/C(=N/C(=O)NC2CCCCC2)N1	-0.3	.
CC(=O)OC[C@H]1O[C@@H](n2ncc(=O)[nH]c2=O)[C@H](OC(C)=O)C1OC(C)=O (some centres undefined)	1.2	-0.085
COc1cc(COC(=O)N2CCN(c3cc(C(F)(F)F)nc4cc(C(C)(C)C)nn34)CC2)ccc1OCc1ccccc1	.	9.28
Cc1ccc(Sc2c(C)n[nH]c2C)cc1	-1.35	-0.005

One compound at a time, from the list above. Screens in order: AID504770 | Ba CapD inh
Results for CC(=O)Nc1nc(-c2ccc(C(C)C)cc2)nc2c1c(=O)oc1ccccc12 → . | -0.28
Results for Cc1cc(Cl)c(O)c(-n2nc3ccccc3n2)c1 → -0.65 | -0.245
Results for Cc1cc(NS(=O)(=O)c2ccc(NS(C)(=O)=O)cc2)no1 → 0.25 | .
Results for CC(=O)OCC(=O)c1ccc(NC(=O)c2ccccc2)cc1 → 2.45 | -0.61

Carrying on.
SMILES	AID504770	Ba CapD inh
CCCc1n[nH]c(=O)c2c1nnn2Cc1ccccc1F	0.8	-0.01
CC(C)(C)OC(=O)N1CC=C2C(C#N)=C(N)C(C#N)(C#N)C(c3ccoc3)C2C1 (centres undefined)	.	-0.01
COc1ccc(-c2cc(C(=O)Nc3ccccc3OC)c3ccccc3n2)cc1	.	1.73
CCCCNC(=O)c1nn(-c2ccc(OC)cc2)c(=O)c2ccccc12	-0.8	1.87
O=C(Cn1nc(-c2ccc(Cl)cc2)ccc1=O)NCCCN1CCCCC1	-0.7	2
O=C(CCCN1C(=O)c2cccnc2Oc2ccc(Cl)cc21)N1CCCCC1	0.9	-1.5
CCN(CC)c1ccc(C2Nc3ccc4ncccc4c3C3=C2C(=O)CCC3)cc1 (centres undefined)	.	0.17
c1cc2nc3c(cc2cn1)CNCC3	.	1.64
COc1ccc2c(c1OC)C(=O)N(c1cccc(Cl)c1)C2=O	-0.4	0.545
CCOc1ccccc1/C=N\N1CCN(c2ccccc2)CC1	-0.35	0.405
Cc1ccn2cc(C(=O)OC(C)c3nnc(-c4cccs4)o3)nc2c1 (centres undefined)	0.35	.
O=C(CSc1nnc(COc2cccc3cccnc23)o1)N1c2ccccc2CCc2ccccc21	-0.6	.
OCc1nc2ccccc2n1Cc1ccc(Cl)cc1	-0.65	-0.07
COc1ccccc1NC(=O)c1cc2ccccc2c(C=Nc2ccc(NC(C)=O)cc2)c1O	-1.25	-0.19
CC1CCN(S(=O)(=O)c2ccc3[nH]c(=O)[nH]c3c2)CC1	0.5	0.275
Cc1ccc(C2CC(c3ccc(F)cc3)n3ncnc3N2C(=O)C2CC2)cc1 (centres undefined)	-0.8	.
Cc1c(C)c(C)c(C(=O)c2ccccc2C(=O)NCc2cccnc2)c(C)c1C	-0.75	0.055
CCOC(=O)c1c(N)n(C(C)CC)c2nc3ccccc3nc12 (centres undefined)	-0.15	.
O=C(O)C1CCN(c2ccc(C(F)(F)F)cn2)CC1	.	7.36
Cc1nnc(NCCc2ccccc2)[nH]c1=O	-1.05	1.7

A draw from above in order of SMILES length, low to high.
SMILES	AID504770	Ba CapD inh
CCCc1n[nH]c(=O)c2c1nnn2Cc1ccccc1F	0.8	-0.01
S=c1n(CN2CCOCC2)c2ccccc2n1-c1ccccc1	0.2	.
Cc1cccc(-c2cc3nc4c(c(N5CCCC5)n3n2)CCCC4)c1	0.6	.
CC1CCN(S(=O)(=O)c2ccc3[nH]c(=O)[nH]c3c2)CC1	0.5	0.275
CCOC(=O)c1nc(N2CCc3cc(OC)c(OC)cc3C2C)c2ccccc2n1 (centres undefined)	-0.2	-0.035
CN(CC(=O)N1CC=C(c2ccccc2)CC1)S(=O)(=O)c1ccc2nc(-c3ccccc3)[nH]c2c1	0.55	0.13

(continued)
SMILES	AID504770	Ba CapD inh
COc1cc(-c2c(C#N)c(N)nc3sc(C(N)=O)c(N)c23)cc(OC)c1OC	.	-0.175
Nc1nc(CSc2nc3ccccc3s2)nc(N2CCOCC2)n1	1.55	-1.5
O=C(CC1(O)C(=O)Nc2ccc(Br)cc21)c1ccc2c(c1)CCCC2 (centres undefined)	.	0.53
CC(C)C(Sc1ccc2c(c1)OCCO2)C(=O)NC(N)=O (centres undefined)	1.95	.
O=C(Oc1ccc(Br)cc1C1NC(=O)c2c(sc3c2CCCC3)N1)c1ccccc1 (centres undefined)	.	-0.43
CC12CCC(C/C1=N\Nc1nc(O)c(C3=c4ccccc4=NC3=O)s1)C2(C)C (centres undefined)	-0.55	.
O=C(NCC1(N2CCCCC2)CCCCC1)c1ccc(N2CCCC2=O)cc1	-0.4	.
COc1ccc2c(c1)N(C(=O)CN1C(=O)c3ccccc3C1=O)C(C)(C)c1ssc(=S)c1-2	.	-1.34
N#CCCNS(=O)(=O)c1ccc(C(=O)NCC23CC4CC(CC(C4)C2)C3)cc1	-0.95	.
CCn1nnc2cc(C(=O)N(C)Cc3ccc(-c4ccc(Cl)cc4)o3)ccc21	-1	.
Cc1cc(OC(=O)N(C)C)nc(SCC(=O)C(C)(C)C)n1	0	0.365
O=c1c2cc(F)ccc2c(-c2ccc(F)cc2)nn1-c1ccc(Cl)cc1	.	0.165
O=C(Nc1ccc(Cl)cc1)c1nn(-c2ccccc2)c(=O)cc1C(F)(F)F	.	0.145
Cc1ccc2[nH]c(=O)c(CNc3ccc(N4CCN(C)CC4)cc3)cc2c1	-0.35	-0.01
CN(C)S(=O)(=O)c1ccc2c(c1)oc(=O)c1cc(S(=O)(=O)N(C)C)ccc12	0.8	-0.07
Clc1cc(N2CCOCC2)ncn1	2.85	-0.38
O=C(/C=C/c1ccc2c(c1)OCCO2)NCc1ccco1	0.85	.
CN(C)c1ccc(C(=O)NCc2cc(Cl)c3c(c2)OCCCO3)cc1	0.65	.
COC(=O)C1(c2ccccc2)NC(c2cccs2)C2C(=O)N(C)C(=O)C21 (centres undefined)	-1.25	.
FC(F)Oc1ccc(/C=N/n2cnnc2)c(OC(F)F)c1	-1.3	.
CN1CCc2c(sc3[nH]c(=S)n(C4CCCCC4)c(=O)c23)C1	.	76.8
CC(C)C(=O)Nc1cc(Cl)cc(Cl)c1	-1.1	0.35
Cc1cc(C)nc(NS(=O)(=O)c2ccc(NC(=O)c3sc4nc5c(cc4c3N)CCCCC5)cc2)n1	.	18.5
Cc1ccc2cccc(SCc3nc(N)nc(Nc4ccccc4)n3)c2n1	.	71.4
O=C(O)COc1ccc2c(c1)oc(=O)c1ccccc12	-0.3	i
Cc1ccc(OCCSc2ncnc3ccccc23)cc1	2.05	0.21
Cc1cc(C)n(-c2nc3ccccc3[nH]c2=O)n1	0.95&0.15	26.1&16
O=C1C2CC3CC(C2)C(C(=O)O)C1C3 (centres undefined)	.	-0.46
CC(=O)Nc1nnc(-c2ccc(Cl)cc2)s1	-0.6	i
Cn1nc(CC(=O)NC2CCCCCC2)c2ccccc2c1=O	-0.5	0.295
COc1cc(OC)nc(OC(Cc2ccnc3ccccc23)c2ccc(C(C)(C)C)cc2)n1 (centres undefined)	.	0.52
CCOc1ccccc1NC(=O)c1cc([N+](=O)[O-])ccc1N1CCN(C(c2ccccc2)c2ccccc2)CC1	.	-0.365
CC(=O)N(C1=NCCCS1)c1ccc(C)cc1	-0.7	.
O=C(CCCN1CCOCC1)c1ccc2c(c1)OCCO2	-0.45	.
COc1cccc(Cl)c1NC(=O)N1CCN(c2cc(C)nc3ccccc23)CC1	0	-0.485
Cc1cccc(C(=O)NC(=NCCc2cnc[nH]2)Nc2nc(C)cc(C)n2)c1	-0.5	.
Cc1cc(=O)oc2cc(Oc3nncc4ccccc34)ccc12	1.05	0.18
CCSc1nc2sc3c(c2c(=O)n1CCc1ccccc1)CCC3	2.25	9.98
CC(C)c1cc2cc3ccc(=O)oc3cc2o1	-0.05	3.11
Cc1cc(C)c(C#N)c(SCC(=O)c2ccc(Br)cc2)n1	.	-0.055
CCOC(=O)c1c(NC(=O)c2cc(=O)c3ccccc3o2)sc(C)c1C	0.65	0.24
COc1ccc(C2Nc3ccccc3C(=O)N2Cc2ccccc2)cc1COc1ccc([N+](=O)[O-])c(C)c1 (centres undefined)	.	5.18
O=C(NNc1nc2ccccc2nc1Cc1ccccc1)c1cccc(Cl)c1	.	0.425
O=C(OCC(F)(F)F)c1ccc(N2CCN(Cc3ccccc3)CC2)nc1	.	-0.215
CCOc1cc(/C=C2/C(=N)N3C(c4ccccc4)=CSC3=NC2=O)ccc1OCCOc1ccccc1OC	.	-0.035
CCOc1cccc2sc(=NC(=O)c3ccc(C#N)cc3)n(CC)c12	1.55	0.335
CCOc1ncccc1C(=O)Nc1ccc2c(c1)OCCO2	-0.25	.
CC1=C(C)CC(C(=O)N2CCN(Cc3ccccc3)CC2)C(C(=O)O)C1 (centres undefined)	2.45	-0.805
COC(=O)CN(n1cnnc1)S(=O)(=O)c1ccc(C)cc1	-1.1	0.08
O=C(NCCN1CCOCC1)C1CCN(C(=O)c2cc3sccc3n2Cc2ccc(F)cc2)CC1	-0.45	0.57
CN(C)c1ncc(S(=O)(=O)c2ccccc2)c(-c2ccccc2Cl)n1	.	0.33
CCCCN1Cc2c(n(CC(=O)OCC)c3cc(-c4ccccc4)nn3c2=O)C1=O	-1.15	7.98
CCC(Cc1cc(OC)c(C)cc1OC)NC(=O)c1ccc(F)c(F)c1 (centres undefined)	-1.45	-0.64
